Sa growth inh – S. aureus growth inhibition | S. aureus RN4220 growth, OD600, 20 h, 42 °C; stronger effect = lower value | relative growth, % (concentration not given with the values) | actives 0.53% (n = 170,000) | AID 720641;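 active = growth at 42 °C up to 50% and 20 or more points under that at 30 °C, or under 10% at both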;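 also: 300 nL library stock went into each well; scaled to the means of positive and negative controls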
HCMV NEC inh – inhibitors of HCMV UL50-UL53 nuclear egress complex interaction | AID 1918969 | actives 0.15% (n = 190,000) | inhibition, % (no concentration beside the values) | HTRF UL50-UL53 interaction, normalized percent inhibition;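 active = both replicates at 50% or more, plus weaker picks with an unusually low signal ratio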;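 also: stock transfer was 100 nL into about 20 µL; 0% = negative control wells and 100% = wells with untagged competitor protein; inactives centre near -12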
GIV Gai3 FP – inhibitors of GIV GBA-motif binding to rat Galpha-i3 | P08753 | Galpha-i3/FITC-GIV peptide fluorescence polarization, 90 min; stronger effect = lower value; scaled: aluminum fluoride 0%, vehicle 100% | percent of control (FP), % (no concentration beside the values) | actives 0.42% (n = 210,000) | AID 1224905;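 active = replicate mean at 85% of control or lower, very high polarization wells dropped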;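 also: wells of about 15 µL received 100 nL stock; the first replicate is given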
Target sequence (P08753 whole entry, looked up): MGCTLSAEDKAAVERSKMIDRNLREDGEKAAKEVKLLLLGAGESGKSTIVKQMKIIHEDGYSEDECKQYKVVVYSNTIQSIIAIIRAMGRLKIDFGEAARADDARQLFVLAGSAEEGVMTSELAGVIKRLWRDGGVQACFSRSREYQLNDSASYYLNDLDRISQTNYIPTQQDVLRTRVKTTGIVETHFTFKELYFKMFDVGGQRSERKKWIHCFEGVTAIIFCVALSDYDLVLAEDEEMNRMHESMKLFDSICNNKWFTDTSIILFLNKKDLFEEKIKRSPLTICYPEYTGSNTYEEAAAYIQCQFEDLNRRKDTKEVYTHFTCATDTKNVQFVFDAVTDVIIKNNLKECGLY
Sa growth inh second temp – also measured in Sa growth inh; calls as there; relative growth, %; measured here: growth at 30 °C;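 optical density after 20 h as mean of two plates; 100% = untreated growth and lower means inhibition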
Numbers without * were called inactive; · = not tested or not shown. The order is random (roughly 0.8% active in at least one column).

The opening seven records (preview)
SMILES	Sa growth inh	Sa growth inh second temp	HCMV NEC inh	GIV Gai3 FP
C/C(=N\O)c1cc2ccc(O)cc2oc1=O	102	88	-43	·
COC(=O)c1cc(S(=O)(=O)Nc2nn(C)c3ccccc23)oc1C	114	92	-16	107
CC(CC(=O)Nc1ccc(Cl)cc1)S(=O)(=O)c1ccc(Cl)cc1 (stereo not drawn)	82	86	-3	96
O=C(/C=C/c1cccs1)OCC(=O)c1cc2ccccc2o1	74	92	-2	·
Nc1ccc(-c2nnc(-c3ccccc3)o2)cc1	·	·	12	100
COC(=O)c1c(C)noc1-c1ccc(C(F)(F)F)cc1	100	94	1	103
c1cc2c(cc1NC1=NCCCCC1)OCCO2	92	87	-13	·

The list itself, repeating the preview:
SMILES	Sa growth inh	Sa growth inh second temp	HCMV NEC inh	GIV Gai3 FP
C/C(=N\O)c1cc2ccc(O)cc2oc1=O	102	88	-43	·
COC(=O)c1cc(S(=O)(=O)Nc2nn(C)c3ccccc23)oc1C	114	92	-16	107
CC(CC(=O)Nc1ccc(Cl)cc1)S(=O)(=O)c1ccc(Cl)cc1 (stereo not drawn)	82	86	-3	96
O=C(/C=C/c1cccs1)OCC(=O)c1cc2ccccc2o1	74	92	-2	·
Nc1ccc(-c2nnc(-c3ccccc3)o2)cc1	·	·	12	100
COC(=O)c1c(C)noc1-c1ccc(C(F)(F)F)cc1	100	94	1	103
c1cc2c(cc1NC1=NCCCCC1)OCCO2	92	87	-13	·
O=C(CCS(=O)(=O)c1ccccc1)N1CCOCC1	108	91	5	99
N#C/C(=C\C(=O)O)c1cccs1	·	·	-27	101
COCCn1c(CCC(=O)O)ccc1-c1ccccc1	95	90	-4	113

Entries of single compounds, quoted from the list. Screens in order: Sa growth inh, Sa growth inh second temp, HCMV NEC inh, GIV Gai3 FP
COC(=O)c1cc(S(=O)(=O)Nc2nn(C)c3ccccc23)oc1C in the list: 114, 92, -16, 107
CC(CC(=O)Nc1ccc(Cl)cc1)S(=O)(=O)c1ccc(Cl)cc1 (stereo not drawn) in the list: 82, 86, -3, 96
O=C(/C=C/c1cccs1)OCC(=O)c1cc2ccccc2o1 in the list: 74, 92, -2, ·

(continued)
SMILES	Sa growth inh	Sa growth inh second temp	HCMV NEC inh	GIV Gai3 FP
O=C(Cn1c(=O)n(-c2ccccc2)c(=O)c2sccc21)NCc1ccco1	99	99	·	96
Cc1cc(N2CCCCC2C)n2nc(-c3ccccc3)nc2n1 (stereo not drawn)	·	·	-11	103
Nc1ccn(-c2ccccc2)n1	94	96	7	104
N#CC1(NC(=O)CSc2nnc(-c3cccs3)n2C2CC2)CCCCC1	85	93	-10	·
O=S(=O)(c1ccccc1)c1nc(-c2ccco2)oc1Nc1ccccc1	107	104	-1	103
CCC(=O)N1c2ccccc2C(N(C(=O)c2ccccc2)c2cccc([N+](=O)[O-])c2)CC1C (stereo not drawn)	·	·	1	113
Fc1ccc(C2=NNC3=NCCN3C2)cc1F	89	93	-24	106
COc1ccccc1C(=O)COC(=O)c1ccc(Br)cc1	103	101	7	·
C=CCN1C(=Nc2ccccc2)SC/C1=C\C(=O)OC	90	76	2	103
Cc1cc(OCC(=O)Nc2ccc3c(c2)NC(=O)CO3)ccc1Cl	·	·	-22	104
COc1cc(C(=O)NCCSc2c(-c3ccccc3)[nH]c3ccccc23)cc(OC)c1OC	95	63	-16	104
COc1ccc(-c2c(C)noc2C)cc1S(=O)(=O)N1CCc2ccccc2C1	·	·	-13	105
Cc1cc(C(=O)NCc2nnc3ccccn23)c(C)o1	109	94	-6	·
CCCCN1C(=O)c2ccc(C(=O)C(C#N)c3nc4ccccc4[nH]3)cc2C1=O (stereo not drawn)	99	89	-48	·
COC(=O)c1ccc2c(c1)sc1nc(-c3ccc(OC)cc3)cn12	81	66	-6	·
COc1ccc(-c2c(C)oc3cc(OCCN4CCOCC4)ccc3c2=O)cc1	82	88	-5	101
O=C(Cc1ccc(Cl)cc1)NC1CC(=O)N(c2ccc3c(c2)OCCO3)C1 (stereo not drawn)	112	89	·	103
O=C(O)c1ccc(Nc2ccnc3cc(Cl)ccc23)cc1	84	84	·	104
CCOc1ccc(N2C(=O)/C(=C/c3ccc(OCC(=O)O)c(OC)c3)C(=O)NC2=S)cc1	·	·	-26	100
Cc1cccc(-c2nc3sc4c(c3c(=O)o2)CCC4)c1	·	·	-10	106
CC(C)CNc1nc2ccccc2s1	94	87	-2	·
COc1ccc(C(=O)N2CCCC2)cc1S(=O)(=O)N1CCCc2ccccc21	90	97	-14	·
O=C(CSc1nc2sc3c(c2c(=O)[nH]1)CCCC3)Nc1ccccc1F	100	85	·	103
Cc1nc(/C(N)=N/OC(=O)c2cc3c([nH]c4ccccc43)c(C)n2)no1	91	75	2	110
CSc1nnc(-c2ccccc2NC(=O)/C=C/c2ccccc2)o1	99	91	-17	100
Cc1ccc2c(=O)c(C(=O)c3cccc(Cl)c3)cn(CC(=O)NC3CCCCC3)c2n1	102	95	·	113
O=c1[nH]c2cc(Cl)ccc2c(O)c1-c1ccc(Oc2ccccc2)cc1	·	·	-21	104
CC(=O)N1CCCSc2ccc(S(=O)(=O)N3CCN(C4CCCC4)CC3)cc21	·	·	-4	102
CCC(C)CCCCC(=O)NC(CCN)C(=O)NC(C(=O)NC(CCN)C(=O)NC1CCNC(=O)C(C(C)O)NC(=O)C(CCN)NC(=O)C(CCN)NC(=O)C(CC(C)C)NC(=O)C(Cc2ccccc2)NC(=O)C(CCN)NC1=O)C(C)O (stereo not drawn)	91	94	-37	·
COc1ccccc1C(=O)n1cc(C)cn1	99	102	3	103
CCCCNC(=O)c1cn(C)c2ccc(S(=O)(=O)N3CCCCC3)cc2c1=O	93	91	-7	101
CN1CCN(NC(=O)CN2C(=O)S/C(=C\c3c(Cl)cccc3Cl)C2=O)CC1	·	·	-36	108
NCCCOCC1CC1	90	94	-16	·
CC(C)(C)c1ccc(NC(=O)Nc2ccc3c(c2)OCCO3)cc1	100	97	-21	106
Cc1cccn2c(=O)c(C(=O)O)cnc12	·	·	-30	95
CCOC(=O)c1cnc2c(C)cc(C)cc2c1Nc1ccc(OCc2ccccc2)cc1	84	81	-48	103
O=C(Nc1nc(-c2ccc(Br)s2)ns1)c1cc(-c2cccs2)on1	·	·	-30	109
Cc1cccc(N2C(=O)C(CC(=O)Nc3cccc(F)c3)N(CCc3ccncc3)C2=O)c1 (stereo not drawn)	100	76	-7	98
CNCc1cccc(F)c1	89	89	-14	·
CCC(=O)Nc1nc2c(s1)CSc1ccccc1-2	6.6*	8.7*	-70	107
O=C(Cn1c(=O)nc(-c2ccccc2)c2cc(Cl)ccc21)N1CCN(c2ccc(F)cc2)CC1	102	87	·	101
O=C(Cc1c[nH]c2ccccc12)Nc1ccc(F)cc1	94	87	-13	·
CCc1cccc(C)c1NC(=O)c1cccc2c1C(=O)N(Cc1cccnc1)C2	95	69	·	98
COc1ccc(CCNC(=O)c2c(Cl)nc3sccn23)cc1	99	87	-3	·
CCC(CC)c1nnc(NC(=O)c2ccc(OCC(=O)N3CCOCC3)c(OC)c2)s1	109	86	-14	·
Cc1ccc(CNCCCn2ccnc2)cc1	125	88	16	103
O=C(CSc1ncnc2nc[nH]c12)c1ccc(Cl)cc1	·	·	1	97
O=C(/C=C/c1cccs1)Nc1ccc(F)cc1F	77	93	-12	·
O=C(O)C1CCCN1c1ncccn1 (stereo not drawn)	117	91	-29	102
CN(C(=O)c1c(F)cccc1Cl)C1CCCCC1	103	86	-7	108

More structures:
SMILES	Sa growth inh	Sa growth inh second temp	HCMV NEC inh	GIV Gai3 FP
CCc1ccc(NC(=O)CSc2nc3nccnc3c(=O)n2CCc2c[nH]c3ccccc23)cc1	115	84	15	106
NS(=O)(=O)c1ccc(NS(=O)(=O)/C=C/c2ccccc2)cc1	103	101	-1	106
Cc1oc2ncn(CC(C)C)c(=O)c2c1C(=O)N(Cc1ccccc1)C(C)C	80	88	·	104
CSCC(=O)Nc1ccc(C)cc1Br	76	86	-5	·
Cc1nn(-c2ccccc2)c2sc(C(=O)NC3CCS(=O)(=O)C3)cc12 (stereo not drawn)	100	95	-22	·
Cc1nn(Cc2noc(C(=O)NCc3cccc(F)c3)n2)c(C)c1Br	82	92	-20	101
O=C(Oc1ccc(Br)cc1)c1cccnc1	92	101	·	99
COc1ccc(N(Cc2nc3ccccc3s2)S(=O)(=O)c2ccc3c(c2)OCCO3)cc1	102	103	-16	·
CCc1ccc(NC(=O)C(=O)NCCc2csc(-c3ccc(C(F)(F)F)cc3)n2)cc1	121	99	·	101
COc1cc2c(cc1OC)n(CC(=O)c1ccc(C)cc1)c(=O)n1nc(CCn3nc(C)cc3C)nc21	108	99	·	105
O=C1Nc2ccc(S(=O)(=O)NCc3ccc4c(c3)OCO4)cc2C1C1CCCC1 (stereo not drawn)	109	73	-7	101
Cn1c(=O)c(C(=O)N2CCN(c3ccccn3)CC2)nn(-c2ccc(F)cc2)c1=O	·	·	-5	102
O=S(=O)(Cc1ccc(Cl)cc1)NCc1cccs1	104	97	-8	104
O=C(CSc1nccc(-c2cccs2)n1)c1ccc2c(c1)OCCCO2	110	63	-22	101
CN(CC(=O)Oc1ccc2c(c1)OCO2)S(=O)(=O)c1ccc(F)cc1	112	99	-14	·
Cc1ccc(NC(=O)c2c(NC(=O)c3ccco3)sc3c2CCC(C(C)(C)C)C3)c(C)c1 (stereo not drawn)	102	104	16	100
CCOC(=O)c1[nH]c(C)c(CCC(=O)Nc2cc(Cl)c(OC)cc2OC)c1C	94	102	·	109
O=C(O)c1scc2c1OCCO2	64	80	24	103
CCC/C(O)=C1/C(=O)CC(c2ccccc2)CC1=NCc1ccccc1 (stereo not drawn)	119	91	-18	·
CCN1CCCC1CNC(=O)Nc1c[nH]c2ccc(OC)cc2c1=O (stereo not drawn)	96	82	-27	100
c1ccc2c3nnc4n(c-3nc2c1)CCS4	89	80	-128	105
COc1ccc(CCNC(=O)c2cnn3ccccc23)c(OC)c1OC	115	91	·	105
CCOc1ccccc1C(=O)NCC(=O)O	109	91	-8	·
COC(=O)/C=C1\S/C(=N\S(=O)(=O)c2ccccc2)N(c2ccccc2)C1=O	118	96	·	103
CC(=O)c1cccc(NC(=O)c2nc(-c3ccc(C)cc3)n3c2CCCCC3)c1	95	91	·	110
CC1CCN(c2nc3c(S(=O)(=O)c4ccc(Cl)cc4)nnn3c3ccsc23)CC1	93	90	·	109
COC(=O)CC1Oc2ccc(Cl)cc2-n2cc(-c3ccc(C)cc3)nc21 (stereo not drawn)	92	102	19	106
CC1CS(=O)(=O)N(c2ccc(S(=O)(=O)N3CCOCC3)cc2)C1=O (stereo not drawn)	·	·	-10	113
CC1CCN(CCCNC(=O)CN2C(=O)CSc3ccc(S(=O)(=O)N4CCC(C)CC4)cc32)CC1	118	87	·	103
CCOc1ccccc1NC(=O)CCS(=O)(=O)c1ccc2c(c1)CC(=O)N2C	·	·	-24	101
COc1cc(-c2nc3ccccn3c2NC2CCCC2)ccc1O	108	114	10	102
CC(C)(C)c1cc2nc(C(F)(F)F)cc(=O)n2[nH]1	96	100	8	107
Cc1cc2ccccc2n1-c1ccc(C(=O)N2CCC(C(=O)NCc3ccccc3Cl)CC2)s1	135	89	·	106
COc1cccc(Cn2c(=O)n(Cc3ccccc3)c(=O)c3c2c2cc(OC)ccc2n3C)c1	83	81	·	107
Cc1nc(-c2cccc(N3CC(C(=O)Nc4ccc(Br)cc4F)CC3=O)c2)no1 (stereo not drawn)	·	·	-38	106
CC(C)CNC(=O)CCc1nc(-c2ccccc2)no1	95	80	-12	104
CCOC(=O)c1ncn2c1C(=O)OC2(C)C	91	88	-10	·
Cc1nc(-c2ccccc2)c(C(=O)O)s1	·	·	-28	103
COc1ccc(C2C(C(=O)Nc3ccc(C)cc3C)=C(C)Nc3nc(SCc4cccc(C)c4)nn32)c(OC)c1 (stereo not drawn)	96	110	-13	98
CCc1ccc(OCc2nc(-c3ccc(OC)c(OC)c3)no2)c(Br)c1	101	93	-36	106
Cc1cccc(NC(=O)CSc2nnc(-c3ccoc3C)n2CC(C)C)c1C	109	103	-10	104
NC(=O)C(c1ccc(F)cc1)c1ccc(C(=O)c2ccccc2)cc1 (stereo not drawn)	·	·	-12	105
CC(=O)Nc1ccc(NC(=O)C(C)OC(=O)c2ccc(S(=O)(=O)N3CCCCC3)cc2)cc1 (stereo not drawn)	110	95	-14	·
CCOC(=O)c1c(-c2ccccc2)csc1NC(=O)c1cc(-c2cccc(Cl)c2)on1	101	93	-8	103
CC1(C)CC(C(CC(=O)N2CCCC2)Cc2ccccc2)CCO1 (stereo not drawn)	90	77	-17	101
CCCC(C(=O)NC1=NCCS1)c1ccccc1 (stereo not drawn)	124	98	7	·
Cc1c(C(=O)Cn2cnc3nc4c(cc3c2=O)CC(C)CC4)c2ccccc2n1C (stereo not drawn)	·	·	6	112
CC(C(=O)OCC(=O)n1c2c(c3ccccc31)CCCC2)N1C(=O)c2ccccc2C1=O (stereo not drawn)	93	97	·	96
Cc1ccccc1-c1nc(N)n(C(=O)C(C)(C)C)n1	·	·	1	101
CC1CCCC(C)N1CC(=O)O (stereo not drawn)	107	87	-11	104
O=c1c2cc(NC(=S)NCC3CCCO3)ccc2nc2n1CCCCC2 (stereo not drawn)	111	86	·	103
O=C(c1ccc(CS(=O)(=O)c2ccccc2)cc1)N1CCC(c2nc(-c3ccccc3)no2)CC1	·	·	-10	100

Source: PubChem BioAssay
